Six1-Eya2 blk: blocks human Six1 binding to Eya2. AlphaScreen GST-Six1/His-Eya2 binding, biochemical; stronger effect = lower value; control for the full effect not named in the record. activity change, % (no concentration beside the values). AID 651725. 360,000 tested, 0.56% active; in the data active = activity change below about -65%; inconclusive = about -30% to -65%; inactive = above about -30%; also: % is scaled to controls: 0 for no effect and ±100 for the full control effect; compound concentration not given in the record
Target sequence (O00167 whole entry, looked up): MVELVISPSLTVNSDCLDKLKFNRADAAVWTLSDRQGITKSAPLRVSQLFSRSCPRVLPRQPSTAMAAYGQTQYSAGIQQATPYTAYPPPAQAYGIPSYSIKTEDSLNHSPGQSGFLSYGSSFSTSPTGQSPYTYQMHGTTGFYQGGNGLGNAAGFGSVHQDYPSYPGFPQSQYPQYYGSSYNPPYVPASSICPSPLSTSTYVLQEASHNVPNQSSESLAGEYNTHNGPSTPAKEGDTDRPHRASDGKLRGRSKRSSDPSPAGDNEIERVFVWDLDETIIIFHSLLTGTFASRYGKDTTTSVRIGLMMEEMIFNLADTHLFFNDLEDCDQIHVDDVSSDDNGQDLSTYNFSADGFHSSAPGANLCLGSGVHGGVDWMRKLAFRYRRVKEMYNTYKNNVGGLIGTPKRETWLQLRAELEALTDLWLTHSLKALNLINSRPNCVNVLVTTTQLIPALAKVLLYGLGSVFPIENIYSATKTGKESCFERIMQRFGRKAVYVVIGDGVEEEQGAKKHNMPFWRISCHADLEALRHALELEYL
Target sequence (Q15475 whole entry, looked up): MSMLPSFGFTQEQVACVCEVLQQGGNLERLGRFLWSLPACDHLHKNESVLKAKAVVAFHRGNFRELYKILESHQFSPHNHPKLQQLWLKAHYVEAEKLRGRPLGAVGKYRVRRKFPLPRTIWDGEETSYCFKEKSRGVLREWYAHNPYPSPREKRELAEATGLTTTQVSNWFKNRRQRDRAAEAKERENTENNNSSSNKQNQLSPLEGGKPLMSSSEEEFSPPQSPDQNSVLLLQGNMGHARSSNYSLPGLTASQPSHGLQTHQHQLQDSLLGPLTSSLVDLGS
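AlphaScreen luminescence read after one hour at 37 °C in darkness. Pin-transferred compounds met GST-Six1 and His-Eya2 protein (5X stock 250 nM/500 nM) plus glutathione donor and Ni-chelate acceptor beads (5X, 50 ug/mL).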
CtBP-E1A blk: CtBP/E1A binding inhibition. AlphaScreen GST-E1A/His-CtBP binding, 1536-well; stronger effect = lower value; control for the full effect not named in the record. activity change, % (concentration not given with the values). 340,000 tested, 0.49% active. AID 651724; in the data active means activity change below about -65%; inconclusive means about -30% to -65%; inactive means above about -30%; also: % is scaled to controls: 0 for no effect and ±100 for the full control effect
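AlphaScreen with 125 nM GST-E1A and 125 nM His-CtBP (5X stocks) in Tris pH 8.0, 300 mM NaCl, BSA, Tween 20, TCEP. Compounds preincubated 2 h at 37 deg C, then glutathione donor/nickel acceptor beads added for 1 h at 37 deg C in dark.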
TRPML1 blocker: blocks the human TRPML1 channel | TRPML1-inducible cells, Ca2+ dye fluorescence, FDSS; stronger effect = lower value; inhibition of EC80 agonist-evoked calcium signal | activity change, negative = inhibition, % (test concentration not listed) | 390,000 tested, 0.02% active; in the data active means activity change below about -50%; inconclusive means about -30% to -50%; inactive means above about -30%;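 also: stimulus is agonist 54-4 at its EC80 concentration; % is scaled to controls: 0 for no effect and ±100 for the full control effect; compound concentration not given in the record; the text of the record puts the active cut at -80%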
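TRPML1-DL cells, Tet-induced overnight (~16 h, 37 °C) at 1,500 cells/well, were loaded with Ca8 no-wash dye plus quencher for 45-90 min at room temperature. Compounds were pinned during FDSS kinetic reading; agonist 54-4 at EC80 (4 uM final) then added.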
D2 ag: activates the human D2 dopamine receptor; activation, % (test concentration not listed); 360,000 tested, 0.084% active; AID 624465; DiscoveRx PathHunter D2 beta-arrestin, luminescence, 90 min; 100% = 57 uM dopamine signal; in the data active = activation above about 40%; inconclusive = about 15% to 40%; inactive = below about 15%; also: compound concentration not given in the record; the text of the record calls up to 30% inactive
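Agonist mode: compounds alone added to overnight-plated D2 PathHunter cells for 90 min at 37 C, with 57 uM final dopamine (EC100) defining full response. Beta-arrestin recruitment detected by chemiluminescent reagent, read after 1 h at ambient temperature.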
TRPML1 ag: human mucolipin-1 channel agonism; 410,000 tested, 0.12% active; TRPML1-expressing cells, Ca2+ dye fluorescence, FDSS; host cell line not named in the record; reference of the full effect not given here; activation, % (test concentration not listed); AID 624414; Q9GZU1; in the data active = activation above about 50%; inconclusive = about 30% to 50%; inactive = below about 30%; also: 0% is about no effect; the text of the record puts the active cut at 80%
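Cells: TRPML1-DL, 1X Tet inducer, ~16 h at 37 degrees C/5% CO2. Dye: ABD Ca8 no-wash + quencher, 45-90 min RT. Read: 10 s baseline, compound add, 110 s agonist phase; 54-4 EC80 (4uM final), 110 s antagonist phase.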
PINK1 expr mod: changes PINK1 expression | PINK1 immunofluorescence, high-content cytometry, 24 h | Potency, µM (series often up to 76.6 µM), for inactives: top-dose activation (PINK1 increase), actives largely listed as activators | 410,000 tested, 0.2% active | AID 624263; active = well fitted activation curve with a large enough effect; inconclusive = small, poorly fitted or top-dose-only effect; inactive = flat fitted curve, though single readings scatter; cell line not stated here;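 also: potency is read from the fitted curve at half-maximal effect; % of control where 0% means no effect; nearly all actives have a fitted effect of over 65% in size; a mitochondrial uncoupler was the plate control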
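Measures PINK1 amount and localization on or inside mitochondria by immunofluorescence. Stable cells get compounds at 5 concentrations for 24 hours before fixation and staining; CCCP controls included.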
* hit, by the source's call; ? = inconclusive; . = not tested or not shown; [ ] = remark or other dose. Rows were taken by chance; 1% or so of the library scored in one or more.

Sample of the layout:
Values run as follows: Six1-Eya2 blk	CtBP-E1A blk	TRPML1 blocker	D2 ag	TRPML1 ag	PINK1 expr mod
- S=C(NCCNC(=S)Nc1ccccc1Cl)Nc1ccccc1Cl
→ -12	0	0	8.2	0.4	1.6%
- CCN(CC)c1nc(N2CCN(C)CC2)nc2ccccc12
→ -15	-3	0	-3.8	0.9	-1.3%
- O=C(Nc1cc(C(F)(F)F)ccc1N1CCCC1)C1CC(=O)N(Cc2ccccc2)C1 (stereo not drawn)
→ -2	-4	-8	-5.0	-0.9	2.1%

All compounds of this part, from the start:
Values run as follows: Six1-Eya2 blk	CtBP-E1A blk	TRPML1 blocker	D2 ag	TRPML1 ag	PINK1 expr mod
- S=C(NCCNC(=S)Nc1ccccc1Cl)Nc1ccccc1Cl
→ -12	0	0	8.2	0.4	1.6%
- CCN(CC)c1nc(N2CCN(C)CC2)nc2ccccc12
→ -15	-3	0	-3.8	0.9	-1.3%
- O=C(Nc1cc(C(F)(F)F)ccc1N1CCCC1)C1CC(=O)N(Cc2ccccc2)C1 (stereo not drawn)
→ -2	-4	-8	-5.0	-0.9	2.1%
- Cc1nnc(NC(=O)CN2CCN(Cc3ccc(F)cc3Cl)CC2)s1
→ 1	0	2	-3.2	-0.3	1.0%
- Cc1cc(C)nc(N2CCCC(C(=O)NCc3ccc4c(c3)OCO4)C2)n1 (stereo not drawn)
→ -1	0	6	-6.0	-2.0	-0.2%
- COc1ccccc1C(=O)C1CCCN(C(=O)c2cn3cc(Cl)ccc3n2)C1 (stereo not drawn)
→ -2	11	-2	1.6	0.6	0.7%
- COC(=O)c1ccccc1NS(=O)(=O)c1cn(C)c(=O)n(C)c1=O
→ -1	-2	2	-4.9	-0.2	4.8%
- Cc1ccc(C2=NN(CCC(=O)NCCCN3CCOCC3)C(=O)CC2)cc1
→ 3	-1	14	1.1	0.6	-0.8%
- CCN1CCN(S(=O)(=O)c2cc(C(=O)O)ccc2Cl)CC1
→ 8	7	-19	-1.5	-0.1	2.0%
- O=C(COc1ccc(Cl)cc1Cl)NN1C(=O)C2C3C=CC([C@@H]2C1=O)C31CC1 (stereo partly drawn)
→ 2	5	-3	-3.8	-0.8	1.7%
- C=CCn1c(CNC(=O)CCC)nc2ccccc21
→ -3	0	-14	-1.8	0.1	?
- O=C(Nc1cc(Cl)ccc1-n1cncn1)c1cc(S(=O)(=O)N2CCOCC2)ccc1F
→ 8	4	4	1.2	-0.1	-0.9%
- CC(=O)Nc1ccc(NC(=O)CSc2nnc(-c3cccnc3)o2)cc1
→ -7	-3	-17	-2.5	0.0	0.3%
- CC(=O)Nc1ccc(NC(=O)CSc2nc3c([nH]c4ccccc43)c(=O)n2-c2ccccc2F)cc1
→ -5	-6	15	-4.6	0.1	-0.8%
- C=CCOCCn1[nH]c2ccccc2c1=O
→ 0	4	11	3.3	-0.8	-0.6%
- Cc1c(NC(=O)C(C)Oc2cccc(Cl)c2)c(=O)n(-c2ccccc2)n1C (stereo not drawn)
→ 10	2	-17	-1.2	-0.3	1.8%
- COc1cnc(-c2ccccc2)[nH]c1=O
→ 9	-18	-8	-5.2	-0.2	0.1%
- O=[N+]([O-])c1ccccc1Nc1c2ccccc2nc2ccccc12
→ -7	-12	-4	-4.7	-0.7	3.1%
- Cc1ccccc1CNC(=O)C1CCC(=O)N(Cc2cccc(F)c2)C1 (stereo not drawn)
→ 4	-5	-1	-1.1	-0.7	-0.5%
- Cc1ocnc1C(=O)Nc1ccc(Cl)cc1
→ -4	0	-20	-2.0	-0.3	1.4%
- Cc1cc(C(=O)N(C)C)sc1-c1ccccc1
→ -2	6	4	-2.4	7.3	2.5%
- C/C(=N\NC(=O)c1c(Cl)cnn1C)c1ccc(NC(=O)c2ccncc2)cc1
→ -21	4	-8	-1.6	-0.6	5.9%
- Brc1ccc(NCc2cccc3ccccc23)nc1
→ 10	2	16	-0.3	1.2	.
- Cn1c(=O)oc2cc(S(=O)(=O)NCCN3CCc4ccccc4C3)ccc21
→ 0	-1	?	-1.0	0.2	-1.4%
- COc1ccc2oc(C(=O)NNC(=O)c3ccc(F)cc3)c(C)c2c1
→ 1	-9	25	-1.7	0.7	-6.9%
- CCOc1ccc(S(=O)(=O)NCCC(=O)NCC2COc3ccccc3O2)cc1 (stereo not drawn)
→ 4	5	2	-1.2	0.3	1.5%
- COc1ccc(C(=O)CN2C(=O)COc3ccccc32)cc1
→ 4	14	4	1.0	-0.1	0.3%
- CC(CCc1ccccc1)NC(=O)Cn1c(=O)nc(-c2ccccc2)c2cc(Cl)ccc21 (stereo not drawn)
→ .	.	3	.	1.0	1.5%
- O=P(COCCOCCOCCOCP(=O)(c1ccccc1)c1ccccc1)(c1ccccc1)c1ccccc1
→ 8	.	-14	-1.3	0.7	-2.0%
- CC(=O)c1ccc(NC(=O)CSc2nc(=O)n(CCN3CCOCC3)c3c2CCC3)cc1
→ -2	-19	-5	3.7	0.0	-0.8%
- CCOc1ccc(-n2c(SCc3ccc(C(=O)OC)o3)nc3c(c2=O)SCC3)cc1
→ -6	0	10	-2.4	1.7	-3.4%
- CC1CC(c2ccccc2)NS(=O)(=O)O1 (stereo not drawn)
→ 0	8	-5	-1.0	-0.6	-0.2%
- Cc1cc(C)c(S(=O)(=O)NCC(c2ccc(N(C)C)cc2)N2CCOCC2)c(C)c1 (stereo not drawn)
→ .	.	21	.	0.0	1.3%
- O=C(Nc1ccnn1C1CCN(Cc2cccc(F)c2F)CC1)C1CCCC1
→ 3	-2	-15	-2.2	0.4	-3.8%
- O=C(O)c1ccccc1/C=N/Nc1ccc(S(=O)(=O)N2CCCC2)cc1[N+](=O)[O-]
→ -7	-10	2	-1.9	-0.3	-1.0%
- COC(=O)[C@H](Cc1ccccc1)NC(=O)c1ccc2ccccc2n1
→ 6	-10	-15	-8.4	0.6	-1.4%
- CCCC(=O)Nc1sc2c(c1C#N)CCCCC2
→ 2	9	-16	-1.0	-0.5	6.1%
- CCOC(=O)C(=O)N(CC)C1CCS(=O)(=O)C1 (stereo not drawn)
→ 6	4	-6	-3.9	-0.3	-1.5%
- Cc1cc(OCC(=O)Nc2ccc(N3CCN(C(=O)c4ccco4)CC3)cc2)cc(C)c1Cl
→ -2	7	1	1.9	4.8	12%[38.3 µM]
- O=C(COC(=O)CNC(=O)C1CCCCC1)Nc1ccc2c(c1)OCCO2
→ 3	1	10	-4.8	-1.4	-0.1%
- Cn1cc(CN2CCc3c([nH]c4ccccc34)C2C(C)(C)C)cn1 (stereo not drawn)
→ -5	-5	-6	-1.3	-0.2	2.4%
- O=C(Nc1cccc(Cl)c1)Nc1ccc2nccnc2c1
→ -10	-24	8	?	2.6	2.2%
- Cc1cc(C)n(C(=O)c2nn(C)c(C)c2[N+](=O)[O-])n1
→ 3	1	7	-0.4	-0.1	4.6%[38.3 µM]
- O=C(/C=C/Nc1cccc(F)c1)c1ccco1
→ 1	1	25	-1.8	0.9	0.3%
- CC(C)(C)NC(=O)NC(=O)COC(=O)COc1ccc(Cl)cc1Cl
→ 1	11	0	-5.1	5.9	3.2%
- Cc1ccc(OC(=O)c2cc(=O)c3ccccc3o2)cc1
→ 13	-4	8	-4.2	0.3	-1.9%
- COc1ccc(CCN(Cc2nc(-c3ccccc3)no2)Cc2nc(-c3ccccc3)no2)cc1OC
→ 3	5	-13	-2.7	1.0	4.2%
- Nc1nonc1C(=O)N/N=C\c1cc2c(cc1Cl)OCO2
→ -10	-18	2	-7.4	-0.4	1.9%
- O=C(CSc1ccc([N+](=O)[O-])cn1)Nc1ccc2[nH]c(=O)[nH]c2c1
→ -9	-7	16	1.2	0.4	2.8%
- COc1cc(OC)cc(C(=O)NCC(=O)NCC(c2ccco2)N2CCCCC2)c1 (stereo not drawn)
→ 4	-2	-10	1.0	1.1	1.6%
- CS(=O)(=O)N(CC(=O)Nc1ccccc1C(=O)NCc1ccco1)c1ccc2c(c1)OCCO2
→ -3	-10	54	0.8	0.7	8.8%[38.3 µM]
- COc1ccc(C(=O)NCCc2nc3cc([N+](=O)[O-])ccc3n2C)cc1
→ -7	.	32	-0.5	1.0	1.2%
- COc1ccc(/C=N/NC(=O)C2C(=O)NCC2c2ccccc2)c(OC)c1 (stereo not drawn)
→ 4	5	23	3.8	-0.5	5.1%
- C[C@H](CO)N1C[C@H](C)[C@@H](CN(C)C(=O)Nc2ccc(F)cc2)Oc2ccc(NS(C)(=O)=O)cc2C1=O
→ 6	4	5	-3.7	-0.2	0.4%
- CC(Nc1nc(-c2ccccc2F)nc2ccccc12)c1ccccc1 (stereo not drawn)
→ 4	4	-3	-5.5	0.7	?
- CCN1CCN(C(=O)C2c3cc(OC)c(OC)cc3C(=O)N(C)C2c2ccc(SC)cc2)CC1 (stereo not drawn)
→ -3	9	-2	-3.6	-0.6	-0.7%
- CC(=O)Nc1ccc2c(O)cc(S(=O)(=O)O)cc2c1
→ -19	0	-12	0.9	1.2	4.3%
- CCOC(=O)C1=C(COC(=O)/C=C/c2ccco2)NC(=O)NC1C (stereo not drawn)
→ -23	2	10	-2.2	0.6	-2.8%
- CC1CC1C(=O)OCC(=O)Nc1cccc(Br)c1 (stereo not drawn)
→ 3	8	8	-3.3	1.6	-2.4%
- Nc1nc(SCC(=O)Nc2ccc(Cl)cn2)n[nH]1
→ 8	.	8	-1.4	0.5	-0.4%

Additional records follow.
Values run as follows: Six1-Eya2 blk	CtBP-E1A blk	TRPML1 blocker	D2 ag	TRPML1 ag	PINK1 expr mod
- CCOC(=O)c1sc(=S)n(-c2ccccc2Cl)c1C
→ 0	6	30	-4.4	1.1	0.9%
- CCn1c(=N)n(CC(O)COc2ccccc2)c2ccccc21 (stereo not drawn)
→ .	.	1	.	4.2	-1.5%
- N#Cc1c(-c2ccccc2)nc(SCC(=O)Nc2ccc(OC(F)(F)Cl)cc2)[nH]c1=O
→ 3	-1	.	-4.7	.	1.9%
- O=C(NCc1ccc(Cl)cc1)c1ncn[nH]1
→ -5	-12	30	-3.6	-0.2	0.4%
- CC(C)NC(=O)c1cc(=O)n(C)c(=O)n1C
→ 20	37	33	-2.3	0.0	0.6%
- CCOC(=O)c1c(C)[nH]c(C)c1S(=O)(=O)N1CCC(C(=O)Nc2ccc(OC)c(OC)c2)CC1
→ .	.	-13	.	-1.2	-0.1%
- COc1ccc(CNC(=O)N[C@@H](Cc2c[nH]c3ccccc23)C(=O)O)cc1
→ 1	7	-19	4.6	-0.3	-0.3%
- O=C(OC(C(=O)NCC1CCCO1)c1ccccc1F)c1ccco1 (stereo not drawn)
→ 2	4	9	-3.5	-0.4	0.6%
- CCC(C)(C)NC(=O)CN(C(=O)CCC(=O)Nc1nccs1)c1ccccc1C
→ 1	-13	1	-2.0	0.3	-0.8%
- COc1ccc(C(=O)N(C)Cc2nc3ccccc3c(=O)[nH]2)cc1S(=O)(=O)N1CCCC1
→ 4	-14	-13	-3.3	0.7	0.6%
- Cc1cc(NC(=O)c2ccccc2Cl)ccc1NC(=O)c1ccccc1
→ .	.	22	.	-0.7	11%
- Cc1ccc(Nc2nnc(SCC(=O)Nc3cccnc3Cl)s2)cc1C
→ -10	23	4	-2.7	-0.5	-0.6%

Compound activity: PubChem, National Center for Advancing Translational Sciences (NCATS)
